Bioassay records as filed in PubChem BioAssay.
VDR inhibitor: vitamin D3 receptor (human) inhibition; P11473; VDR-SRC2-3 peptide fluorescence polarization, 2 h; Potency, µM, for the others: max response, negative = inhibition, most hits filed as inhibitors; hit rate 0.93% among 400,000; active = well fitted inhibition curve with a large enough effect; inconclusive = small, poorly fitted or top-dose-only effect, or another doubt; inactive = no such curve, though single readings can be large or run the other way; also: series mostly up to about 120 µM
Target sequence (P11473 whole entry, looked up): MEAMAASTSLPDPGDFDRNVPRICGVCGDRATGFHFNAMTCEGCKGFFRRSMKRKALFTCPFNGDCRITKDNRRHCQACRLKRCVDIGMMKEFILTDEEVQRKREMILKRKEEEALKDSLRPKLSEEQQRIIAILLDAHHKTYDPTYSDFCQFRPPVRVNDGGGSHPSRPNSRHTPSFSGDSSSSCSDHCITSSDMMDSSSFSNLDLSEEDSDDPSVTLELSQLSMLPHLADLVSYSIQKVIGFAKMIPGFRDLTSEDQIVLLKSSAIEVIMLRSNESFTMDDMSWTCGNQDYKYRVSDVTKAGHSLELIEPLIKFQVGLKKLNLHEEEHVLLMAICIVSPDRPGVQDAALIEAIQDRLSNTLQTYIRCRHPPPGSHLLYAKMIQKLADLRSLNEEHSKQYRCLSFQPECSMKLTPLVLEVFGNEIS
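Compounds are added to VDR with labelled SRC2-3 coactivator peptide and held 2 h at room temperature. Inhibition of the VDR–peptide interaction is then read as a change in fluorescence polarization.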
* marks the source's active call; other numbers are inactive results; u = inconclusive; & = joins results of further samples; [ ] = dose if it differs, or a comment. % is scaled to controls: 0 for no effect and ±100 for the full control effect; potency is read from the fitted curve at half-maximal effect.

SMILES | VDR inhibitor
CCOC(=O)c1cccc(NC(=O)CCCn2c(C)c3cnn(-c4ccccc4)c(=O)c3c2C)c1 | 6%
COc1cc(/C=C(\C#N)c2[nH]nc(N)c2C#N)cc(OC)c1O | 0%
CC(Cc1ccccc1)C(=O)N(C)Cc1ccccc1 (centres undefined) | 4%
N#Cc1c(-c2ccccc2)nc(N2CCOCC2)[nH]c1=O | 15%
CCOC(=O)c1ccc(NC(=O)N2C3CCCC2CC(NC(C)=O)C3)cc1 (centres undefined) | -19%
COC(=O)c1cc(=O)n(-c2ccccc2)c(=Nc2ccccc2)s1 | u
O=C(/C=C/c1ccc(Cl)cc1)Nc1ccc(S(=O)(=O)Nc2ncccn2)cc1 | 15%
O=S(=O)(Nc1cccc(S(=O)(=O)N2CCOCC2)c1)c1ccc(Cl)s1 | 33%[activator]
Cc1ncc(S(=O)(=O)c2ccc(Cl)cc2)c(N)n1 | u
CCOc1ccc2c(c1)-c1c(ssc1=S)C(C)(C)N2C(=O)CSC1=NCCS1 | -20%
CCCc1nc(NC(C)=O)c(C#N)c(-c2ccco2)c1CC | -1%
CC1CN(N=Cc2ccc([N+](=O)[O-])o2)C(=N)O1 (centres undefined) | 8%
CC1C=Cc2ccccc2N1C(=O)c1ccccc1 (centres undefined) | 10%
O=C(NCCC1=CCCCC1)c1ccc(Cl)c(S(=O)(=O)N2CCOCC2)c1 | 14%
Cc1ccc(C23CC4CC(CC(NC(=O)N5CCN(C)CC5)(C4)C2)C3)cc1 | 13%
CCOC(=O)[C@H](O)[C@@H](O)c1cccc([C@H](O)[C@@H](O)C(=O)OCC)c1 | -14%
CC(C)(C)NC(=O)c1cc(NC(=O)c2cccs2)cc(NC(=O)c2cccs2)c1 | 16%
O=C(CNc1cccc([N+](=O)[O-])c1)NCCCc1ccccc1 | 21%
O=C(Cn1ncc2c3ccccc3n(Cc3cccc(Cl)c3)c2c1=O)NCC1CCCO1 (centres undefined) | -2%
C[C@H](CO)N1C[C@H](C)[C@@H](CN(C)CC2CCCCC2)Oc2c(NC(=O)CCC(F)(F)F)cccc2C1=O | -6%
Cc1c(C(=O)N2CCN(c3ccc([N+](=O)[O-])cc3)CC2)sc2ncn(CC(=O)N3CCOCC3)c(=O)c12 | -6%
CC(C)C(NC(=O)c1c(F)cccc1F)C(=O)N1CCN(S(=O)(=O)/C=C/c2ccccc2)CC1 (centres undefined) | 4%
CC1(C)Cc2c(cnn2-c2cccc(F)c2)C(NC(=O)CCN2CCCC2=O)C1 (centres undefined) | -22%
COc1ccc(OCc2nnc(SCC(=O)NCc3ccco3)o2)cc1 | 4%
C=CCNC(=O)c1ccc(NC(=O)CC2SC(N3CCCC3)=NC2=O)cc1 (centres undefined) | -5%
CC(C)CNc1nc(Oc2ccc(=O)n(-c3ccccc3)n2)nc(N2CCOCC2)n1 | -2%
Cn1cc(-c2nnnn2-c2ccc(Cl)cc2)c(=O)c2ccccc21 | -9%
Cc1ccc(-c2nc(CS(=O)CC(=O)NCCC(C)C)c(C)o2)cc1 (centres undefined) | -3%
NC(=O)c1ccsc1NC(=O)COC(=O)Cc1n[nH]c(=O)c2ccccc12 | -6%
CC(C)(C)OC(=O)N[C@@H](Cc1ccccc1)c1nnc(S(=O)(=O)Cc2cccc(F)c2)o1 | 11µM*

Records listed so far printed as active in VDR inhibitor:
SMILES | VDR inhibitor
CC(C)(C)OC(=O)N[C@@H](Cc1ccccc1)c1nnc(S(=O)(=O)Cc2cccc(F)c2)o1 | 11µM*

Continuation.
SMILES | VDR inhibitor
Cc1n[nH]c2c([N+](=O)[O-])c(=O)[nH]c(=O)n12 | -11%
Cc1cccc(C2C3=C(Nc4[nH]n(-c5ccccc5)c(=O)c42)c2ccccc2C3=O)c1 (centres undefined) | -10%
CC(=O)n1cc([C@H]2C=C(C(=O)N3CCOCC3)O[C@@H](OCCCCO)C2)c2ccccc21 | -5%
COc1ccc(NC(=S)Nc2ccc(Oc3ccccc3)cc2)cc1 | 8%
CC(=O)Nc1ccc(C(=O)OCCc2ccccc2)cc1 | 6%
CCN(CC)CCCNC(=S)N(Cc1cccnc1)Cc1cc2cc(C)cc(C)c2[nH]c1=O | -3%
Cc1cc(C)n2nc(-c3ccc(Cl)cc3)cc2n1 | -7%
CC(=O)c1ccc(N(CC(=O)NCC2CCCO2)C(=O)CCC(=O)Nc2cc(C)on2)cc1 (centres undefined) | -20%
NC(=O)N/N=C/c1cn(CC(=O)Nc2ccc(F)cc2)c2ccccc12 | -3%
O=C(Cn1c(=O)c2cccn2c2cccnc21)NCc1ccccc1F | -2%
COc1cc(CN2CCC(n3nccc3NC(=O)C3CCOC3)CC2)ccc1F (centres undefined) | -12%
O=C(N/N=C/c1c[nH]c2ccccc12)c1ccccc1Cl | 4%
Cn1c(O)c(N=NC(=O)c2cccc(S(=O)(=O)N3CCCCC3)c2)c2ccccc21 | -29%
C[C@H](NC(=O)[C@@H]1CSC2c3ccccc3C(=O)N21)C(=O)NCCc1ccccc1 (some centres undefined) | -21%
COc1ccc(C(=O)O/N=C(\N)c2ccccc2)cc1OC | 0%
O=C(Cc1cccc(C(F)(F)F)c1)NCc1cccc(Cl)c1 | 1%
CN(C)c1ccc(NC(=O)c2cccc(C(=O)Nc3ccc(N(C)C)cc3)n2)cc1 | 79µM*
N/C(=N\N=C\c1ccc(O)cc1)c1nonc1N | -11%
CN1CCN(CC(=O)Nc2c(C#N)cnn2-c2ccccc2)CC1 | -11%
Cc1ccccc1OCC(=O)NCCNC(=O)c1ccncc1 | -11%
C=C1CC[C@@H]2[C@](C)(CO)[C@H](O)CC[C@@]2(C)[C@@H]1C/C=C1/C(=O)OCC1O (some centres undefined) | 4%
Cc1ccc2c(cnn2C(=O)CCC(=O)NCc2cccc(Br)c2)c1 | 4%
CC(=O)Nc1sc2c(c1-c1nc3ccccc3s1)CN(C(C)C)CC2 | 7%
CCCN(C(=O)Cc1nc(N)n[nH]1)C1(C(=O)Nc2ccccc2C)CCCCC1 | -2%
CCOC(=O)N1CCN(C(=O)CSc2nc3c(cnn3-c3ccccc3)c(=O)[nH]2)CC1 | -8%
COc1cc(CCC(=O)Nc2c(C(=O)N3CCN(c4ccccc4)CC3)oc3ccccc23)on1 | 14%
CCOC(=O)CSc1nc2cccnc2n1C | 7%
COc1cc2c(cc1OC)-c1cc(Nc3ccc(C)cc3)nc(=O)n1CC2 | 9%
CC(C)Oc1ccc(NC(=O)Oc2ccccc2)cc1 | -7%
COc1cc(C(CC(=O)NCCC(C)C)N2Cc3ccccc3C2=O)cc(OC)c1OC (centres undefined) | 9%
COc1ccc(C2CCCN2C(=O)Nc2ccc(Cl)cc2)cc1OC (centres undefined) | -5%
Cc1ccc(C)c(N2CCN(C(=O)CCS(=O)(=O)c3ccc4c(c3)CC(=O)N4C)CC2)c1 | 4%
O=c1cc(-c2ccc(O)c(O)c2)oc2c1ccc1ccccc12 | 6%
Cc1ccc(N(CC(=O)NC2CCCCC2)C(=O)CCC(=O)Nc2nccs2)cc1 | -15%
CCOc1ccc(C(=O)COC(=O)C2COc3ccccc3O2)cc1 (centres undefined) | 3%
COc1ccc(CNC(=O)C23CN(Cc4ccccc4)CC2C(c2ccc([N+](=O)[O-])cc2)=NO3)cc1 (centres undefined) | -18%
Cc1cccc(-c2nnc(SCC#N)n2-c2cccc(Cl)c2)c1 | -9%
COc1ccc(CCn2c(SCCN3CCCCC3)nc3ccccc3c2=O)cc1OC | -1%
Cc1ccc(N2CCN(S(=O)(=O)c3ccc(Cl)s3)CC2C)cc1 (centres undefined) | -10%
O=C1NC(=Nc2ccccc2Cl)S/C1=C\c1ccc(C(=O)O)cc1 | -26%
CN(C)/C=C/C(=O)c1ccc(Br)s1 | -6%
O=C(c1ccoc1)N1CCCC(N2CCN(c3cccc(Cl)c3)CC2)C1 (centres undefined) | -10%
O=C(NNC(=O)c1ccccc1[N+](=O)[O-])Nc1ccccc1C(F)(F)F | 0%
CCn1c(SCC(=O)Nc2ccc(C)cc2)nnc1-c1ccc(O)cc1 | 26%
Cc1cccc(C)c1NC(=O)c1cc(S(=O)(=O)N2CCOCC2)ccc1F | -11%

Molecules shown so far that have a CF3 group, in the order listed:
SMILES | VDR inhibitor
C[C@H](CO)N1C[C@H](C)[C@@H](CN(C)CC2CCCCC2)Oc2c(NC(=O)CCC(F)(F)F)cccc2C1=O | -6%
O=C(Cc1cccc(C(F)(F)F)c1)NCc1cccc(Cl)c1 | 1%
O=C(NNC(=O)c1ccccc1[N+](=O)[O-])Nc1ccccc1C(F)(F)F | 0%

(further entries)
SMILES | VDR inhibitor
COC(=O)c1ccc(NC(=O)CCn2c(=O)oc3ccccc32)cc1 | 1%
CC(=O)[C@@]1(O)CC[C@H]2[C@@H]3CCC4=CC(=O)CC[C@]4(C)[C@H]3CC[C@@]21C | -5%&-5%&1%
CCN(C(=O)COC(=O)c1[nH]c(C)c(C(C)=O)c1C)C1CCS(=O)(=O)C1 (centres undefined) | 15%
CCCCNc1nc2sc3c(c2c(=O)n1-c1cccc(Cl)c1)CCN(C)C3 | -14%
COc1ccc(OCCN2CCN(C3CC(=O)N(CCC(C)C)C3=O)CC2)cc1 (centres undefined) | -6%
Cc1ccc(C)c(CN2C(=O)c3ccccc3S(=O)(=O)c3ccc(C(=O)N4CCN(c5ccccc5F)CC4)cc32)c1 | -17%
COc1cc(NC(=O)CNS(=O)(=O)c2cccs2)cc(OC)c1OC | 13%
COc1ccc(CN(CC(=O)NCC2CCCO2)C(=O)CCC(=O)Nc2nccs2)cc1 (centres undefined) | 16%
Cc1c(C#N)c2ncnc(-c3ccccc3)c2n1-c1ccccc1 | -9%
CC(C)c1nc2sc(C(=O)O)c(N)c2c2c1CCCC2 | u
COc1cccc(NC(=O)N2CCCC(C(=O)Nc3ccccc3OC)C2)c1 (centres undefined) | -9%
O=C(OCC1COc2ccccc2O1)c1ccccc1F (centres undefined) | -2%
COc1ccc(NC(=O)c2c(C)oc3ccc(O)c(CN4CCC(C)CC4)c23)cc1 | 3%
Cc1ccccc1OCCNC(=O)c1ccccc1Sc1ccccc1C#N | 11%
O=C(NC1CCCCC1)C(c1ccccc1)N(Cc1ccco1)C(=O)c1csnn1 (centres undefined) | -1%
Cc1c(Cl)cccc1N1CC(c2nc3ccccc3n2Cc2ccccc2F)CC1=O (centres undefined) | -16%
Cc1ccccc1S(=O)(=O)NC1OC(=O)C(Oc2ccccc2)=C1Br (centres undefined) | -9%
CC1CCN(Cc2c(O)ccc3c(=O)c(Oc4ccccc4Cl)c(C(F)(F)F)oc23)CC1 | -26%
CCOC(=O)CSc1ccc2nnc(-c3ccccc3)n2n1 | -4%
N#C/C(=C\c1cccc(NC(=O)c2ccccc2Cl)c1)C(=O)NCCc1ccccc1 | u
CCN(CC)S(=O)(=O)c1ccc(OCC(=O)NC(=O)c2ccccc2OC)c([N+](=O)[O-])c1 | u
CCCCNC(=O)Cn1c(=O)cc(C)c2c(C)nn(-c3ccc(CC)cc3)c21 | 10%
COc1ccc(NCc2cc3cc4c(cc3n(CC(=O)Nc3ccc(C)cc3)c2=O)OCO4)cc1 | 4%
COc1cc(/C=C(\NC(=O)c2ccccc2)C(=O)NCCO)c([N+](=O)[O-])cc1OC | -2%
Oc1cc(Nc2ccccc2)cc2cccnc12 | -11%
Cc1ccc(-n2nc3c(N4CCC(C(=O)N5CCCCCC5)CC4)nnc(C)c3c2C)cc1 | 2%
COc1cccc(CN2CCNC(=O)C2CC(=O)NCCOc2cccnc2)c1 (centres undefined) | -18%
COc1ccccc1N1CCN(C(=O)c2cn(C)c3ccc(S(=O)(=O)N4CCOCC4)cc3c2=O)CC1 | 19%&-6%
CCOC(=O)C(NC(=O)c1ccc(F)cc1)(Nc1nnc(C)s1)C(F)(F)F (centres undefined) | 10%
COc1cc(/C=C/C(=O)OCC(=O)c2ccccc2)cc(OC)c1OC | 2%

Arranged by the number under VDR inhibitor (highest first): 5 from the list above
SMILES | VDR inhibitor
CCCCNC(=O)Cn1c(=O)cc(C)c2c(C)nn(-c3ccc(CC)cc3)c21 | 10%
COc1ccc(NCc2cc3cc4c(cc3n(CC(=O)Nc3ccc(C)cc3)c2=O)OCO4)cc1 | 4%
COc1cc(/C=C/C(=O)OCC(=O)c2ccccc2)cc(OC)c1OC | 2%
CCOC(=O)CSc1ccc2nnc(-c3ccccc3)n2n1 | -4%
Cc1c(Cl)cccc1N1CC(c2nc3ccccc3n2Cc2ccccc2F)CC1=O (centres undefined) | -16%

Next part
SMILES | VDR inhibitor
Cc1ccc(C(C)C)c(OCC(=O)Nc2ccc(N3CCN(S(C)(=O)=O)CC3)cc2)c1 | -10%
CC(C)CC(=O)Nc1ccc2c3c(cccc13)CC2 | -4%
Cc1cccc(C(=O)Nc2cc3c(cc2N2CCCCC2)n(C)c(=O)n3C)c1 | -7%
CC(=O)Nc1ccccc1C(=O)C(=O)Nc1cccc(Br)c1 | -14%
CC(/C=C/c1ccc(N(C)C)cc1)=N/N=C1/NC(=O)CC(C(=O)Nc2ccc(Cl)cc2)S1 (centres undefined) | 7%
COc1cc2c(cc1OC)CN(C1CCC(C)CC1)CC2 (centres undefined) | 5%
COc1cccc(C(=O)Nc2cccc(C(=O)NCC(C)C)c2)c1 | -11%
COc1cc(CN(C(=O)c2ccc(Cl)cc2)C2CCS(=O)(=O)C2)cc(OC)c1OC (centres undefined) | 11%
COC(C(=O)Nc1ccc(F)cc1)c1ccccc1 (centres undefined) | -1%
COc1cc(C(=O)NC2CCCc3ccccc32)ccc1OCC(=O)Nc1ccc(F)cc1 (centres undefined) | -11%
COc1ccc(C(=O)CSc2nnc(CCc3ccccc3)n2-c2ccccc2)cc1 | -10%
O=C(CSc1n[nH]c(-c2ccncc2)n1)Nc1ccc(Cl)cc1 | 5%
Cc1ccc(NC(=O)CCNS(=O)(=O)c2ccc3c(c2)CCC(=O)N3)cc1C | -2%
Cn1nc(-c2ccccc2)c(CSc2ccccc2)c1Cl | -9%
O=C1S/C(=C\c2ccc(Cl)cc2)C(=O)N1CCn1cnnn1 | -23%
COc1cc(Cl)c(C)cc1Nc1nc2ccccc2nc1NS(=O)(=O)c1ccccc1 | -21%
O=C(O)C1CCCN(S(=O)(=O)c2ccc3c(c2)OCCO3)C1 (centres undefined) | 12%

These rows are one share of the data; rates above refer to the full screens.
